gsp antagonist – antagonizes gsp, the McCune-Albright syndrome mutation | 340,000 compounds, 0.4% hits | Potency, µM (doses to about 76.9 µM), without a hit: at the highest dose activity change, negative = inhibition, usual class: inhibitors | AID 624288 | gsp-mutant cells, cAMP HTRF, 30 min; control for the full effect not named in the record; active = falling curve of any shape with a large fitted effect; inconclusive = falling curve, mostly with a smaller effect; inactive = flat or rising curve; cell line not stated here;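 also: intracellular cAMP measured with PDE inhibitor Ro 20-1724 present during compound exposure; potency is read from the fitted curve at half-maximal effect; % is scaled to controls: 0 for no effect and ±100 for the full control effect; nearly all actives have a fitted effect of over 65% in size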
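Cells in G418 medium, seeded 16-24 h, 37C; buffer exchange to DPBS + 1 mM CaCl2, 0.5 mM MgCl2, 0.05% BSA; cpds in DMSO + […] (300 uM stock), 30 min 37C; HTRF cAMP detection.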
D2 potentiator – human D2 receptor positive allosteric modulation | DiscoveRx D2 beta-arrestin cells, luminescence, 90 min; 100% = 57 uM dopamine signal | P14416 | potentiation, % (concentration not given with the values) | AID 624464 | 360,000 compounds, 0.23% hits; active = potentiation of 50% or more; inconclusive = 30% to 50%; inactive = 30% or less;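 also: tested on top of an EC20 dose of dopamine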
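PathHunter D2 cells, attached overnight at 37 deg C, received compound in DMSO plus dopamine at EC20 (50 nM final) for 90 min at 37 deg C. Beta-arrestin recruitment was read as luminescence after 1 h with detection reagent at ambient temperature.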
D2 agonist – agonists of human D2 dopamine receptor (beta-arrestin); DiscoveRx PathHunter D2 beta-arrestin, luminescence, 90 min; 100% = 57 uM dopamine signal; 360,000 compounds, 0.084% hits; P14416; activation, % (concentration not given with the values); in the data active = activation above about 40%; inconclusive = about 15% to 40%; inactive = below about 15%; also: the text of the record calls up to 30% inactive
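Agonist mode: compounds alone added to overnight-plated D2 PathHunter cells for 90 min at 37 C, with 57 uM final dopamine (EC100) defining full response. Beta-arrestin recruitment detected by chemiluminescent reagent, read after 1 h at ambient temperature.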
CtBP-E1A blk – blocks the CtBP interaction with E1A; AID 651724; 340,000 compounds, 0.49% hits; AlphaScreen GST-E1A/His-CtBP binding, 1536-well; stronger effect = lower value; control for the full effect not named in the record; activity change, % (concentration not given with the values); in the data active means activity change below about -65%; inconclusive means about -30% to -65%; inactive means above about -30%; also: % is scaled to controls: 0 for no effect and ±100 for the full control effect
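Homogeneous bead-based format: GST-tagged E1A captured on glutathione donor beads, His-tagged CtBP on nickel acceptor beads; compounds precede bead addition by 2 h at 37 °C.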
gsp agonist – gsp mutant agonism. gsp mutant cells, cAMP HTRF, 30 min; control for the full effect not named in the record. Potency, µM (doses to about 76.9 µM), without a hit: at the highest dose activation (cAMP increase), actives largely listed as activators. 340,000 compounds, 0.13% hits. AID 624287; active = well fitted activation curve with a large enough effect; inconclusive = small, poorly fitted or top-dose-only effect, or another doubt; inactive = no such curve, though single readings can be large or run the other way; cell line not stated here;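 also: phosphodiesterase inhibitor Ro 20-1724 added with compounds to block cAMP breakdown; potency is read from the fitted curve at half-maximal effect; nearly all actives have a fitted effect of over 60% in size; about a fifth of the inactives were tested at one dose only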
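Cells in DMEM/10% FBS with G418 were pretreated with compounds in DMSO plus […] (300 uM stock) for 30 min at 37C. cAMP was measured by HTRF (cAMP-d2 plus anti-cAMP antibody-K) after 30 min at room temperature.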
Six1-Eya2 inh – Six1/Eya2 interaction inhibition. Q15475+O00167. AlphaScreen GST-Six1/His-Eya2 binding, biochemical; stronger effect = lower value; control for the full effect not named in the record. activity change, % (concentration not given with the values). 360,000 compounds, 0.56% hits. AID 651725; in the data active = activity change below about -65%; inconclusive = about -30% to -65%; inactive = above about -30%; also: % is scaled to controls: 0 for no effect and ±100 for the full control effect
Target sequence (O00167 whole entry, looked up): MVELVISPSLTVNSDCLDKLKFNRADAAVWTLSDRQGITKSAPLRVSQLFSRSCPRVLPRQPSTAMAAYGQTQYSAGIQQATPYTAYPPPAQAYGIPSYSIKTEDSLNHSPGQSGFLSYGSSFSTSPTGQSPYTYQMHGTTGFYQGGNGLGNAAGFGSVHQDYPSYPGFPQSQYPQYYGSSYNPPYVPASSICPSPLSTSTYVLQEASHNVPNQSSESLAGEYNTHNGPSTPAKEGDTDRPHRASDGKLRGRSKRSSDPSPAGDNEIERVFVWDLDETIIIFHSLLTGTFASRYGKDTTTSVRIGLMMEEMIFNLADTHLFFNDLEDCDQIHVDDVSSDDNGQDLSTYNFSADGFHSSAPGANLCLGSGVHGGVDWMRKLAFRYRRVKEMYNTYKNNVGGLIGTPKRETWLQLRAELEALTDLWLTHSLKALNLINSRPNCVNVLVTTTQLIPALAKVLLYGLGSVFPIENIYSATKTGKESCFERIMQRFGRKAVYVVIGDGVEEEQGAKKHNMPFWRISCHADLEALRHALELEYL
Target sequence (Q15475 whole entry, looked up): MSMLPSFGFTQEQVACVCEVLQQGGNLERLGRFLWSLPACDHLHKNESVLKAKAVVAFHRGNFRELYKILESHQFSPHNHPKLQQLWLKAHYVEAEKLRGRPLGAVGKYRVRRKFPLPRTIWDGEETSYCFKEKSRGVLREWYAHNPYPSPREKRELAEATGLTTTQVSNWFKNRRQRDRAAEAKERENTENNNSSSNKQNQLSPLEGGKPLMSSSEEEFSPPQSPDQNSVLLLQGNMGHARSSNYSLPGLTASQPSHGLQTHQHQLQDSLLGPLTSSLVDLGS
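AlphaScreen luminescence read after one hour at 37 °C in darkness. Pin-transferred compounds met GST-Six1 and His-Eya2 protein (5X stock 250 nM/500 nM) plus glutathione donor and Ni-chelate acceptor beads (5X, 50 ug/mL).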
Starred values were filed as active, the others as inactive; ? = inconclusive; . = no result given; [ ] = dose if it differs, or a comment.

#1 Cc1cc(C(=O)Nc2ccc(N3CCOCC3)cc2)c2ccccc2n1
#2 Cc1cccc(NC(=O)CSc2nc(=O)n(CCN3CCOCC3)c3c2CCCC3)c1C
#3 Cc1c(NC(=O)c2cccc(S(=O)(=O)N3CCOCC3)c2)c(=O)n(-c2ccccc2)n1C
#4 COc1ccc(C(=O)Nc2ccnn2C2CCN(C(=O)C3CCOC3)CC2)cc1 (configuration not stated)
#5 CC(=O)c1ccc(N2CCN(S(=O)(=O)c3ccc4c(c3)CC(=O)N4)CC2)cc1
#6 COc1ccc([C@H]2CC(=O)C=C(c3cccc4c3sc3ccccc34)C2)cc1OC
screen / no.	1	2	3	4	5	6
gsp antagonist	-1.0%	-16.5%	7.2%	8.8%	-2.3%	0.2%
D2 potentiator	4.1	-3.8	-13.6	7.9	-4.0	-2.3
D2 agonist	-0.3	1.0	-1.4	-3.4	9.3	1.9
CtBP-E1A blk	-2.3	10.7	5.5	-4.8	-19.4	-19.4
gsp agonist	-5.8%	23.0%[15.4 µM]	-37.1%[inhibitor]	9.9%	?	.
Six1-Eya2 inh	-1.5	-2.4	-0.4	-2.0	-2.3	-21.2

By substructure: those above with a carbonyl joined to an NH by a bond outside any ring
#1 Cc1cc(C(=O)Nc2ccc(N3CCOCC3)cc2)c2ccccc2n1
#2 Cc1cccc(NC(=O)CSc2nc(=O)n(CCN3CCOCC3)c3c2CCCC3)c1C
#3 Cc1c(NC(=O)c2cccc(S(=O)(=O)N3CCOCC3)c2)c(=O)n(-c2ccccc2)n1C
#4 COc1ccc(C(=O)Nc2ccnn2C2CCN(C(=O)C3CCOC3)CC2)cc1 (configuration not stated)
screen / no.	1	2	3	4
gsp antagonist	-1.0%	-16.5%	7.2%	8.8%
D2 potentiator	4.1	-3.8	-13.6	7.9
D2 agonist	-0.3	1.0	-1.4	-3.4
CtBP-E1A blk	-2.3	10.7	5.5	-4.8
gsp agonist	-5.8%	23.0%[15.4 µM]	-37.1%[inhibitor]	9.9%
Six1-Eya2 inh	-1.5	-2.4	-0.4	-2.0

(more compounds)
#7 CC1CCc2c(sc3ncnc(SCC(=O)Nc4ccc(C(=O)O)cc4)c23)C1 (configuration not stated)
#8 CCOC(=O)c1sc(NC(=O)c2ccc(S(=O)(=O)N(CC)CC)cc2)nc1C
#9 Cc1ccc(N(CCC#N)C(=O)COC(=O)C2CCN(c3ccc(C(F)(F)F)cn3)CC2)cc1
#10 CCCNC(=O)C1(C)CCN(C(=O)c2ccccc2OC(F)(F)F)C1 (configuration not stated)
#11 CC(=O)c1ccc(N2CCC(C)CC2)c(F)c1
#12 CCC12CC3CC(C1)CC(C(=O)Nc1nn[nH]n1)(C3)C2
screen / no.	7	8	9	10	11	12
gsp antagonist	8.6%	6.4%	-17.0%	.	9.6%	1.4%
D2 potentiator	-9.9	-13.9	-21.9	-7.1	-6.3	6.2
D2 agonist	-1.7	0.4	-4.5	-2.3	1.1	-2.9
CtBP-E1A blk	-6.4	-5.0	7.3	0.7	13.6	-1.7
gsp agonist	-6.9%[15.4 µM]	?	11.3%[15.4 µM]	.	-15.2%	3.1%
Six1-Eya2 inh	-0.3	-1.7	-4.1	-2.9	4.1	-4.6

#13 O=C(N/N=C/c1ccccc1)c1[nH]c2ccc(Br)cc2c1-c1ccccc1
#14 CC(=O)n1cc(N(C(=O)CCl)c2ccc([N+](=O)[O-])cc2)c2ccccc21
#15 Cc1cccc(OCC(=O)N/N=C/c2ccc(N(C)C)cc2)c1
#16 Cc1ccc(/C(N)=N/OC(=O)CCC2CCCCC2)cc1
#17 CCOC(=O)OCC(=O)C1(O)CCC2C3CCC4=CC(=O)CCC4(C)C3C(O)CC21C (configuration not stated)
#18 Cc1ccc(C)c(SCC(=O)NCc2ccco2)c1
screen / no.	13	14	15	16	17	18
gsp antagonist	7.9%	?	-13.4%	6.6%	-21.9%	-9.9%
D2 potentiator	-4.5	-5.6	-5.6	-4.3	-2.7	-10.0
D2 agonist	-0.1	-3.2	1.4	-2.4	-0.1	-3.8
CtBP-E1A blk	8.0	7.7	-16.3	42.7	3.7	-3.5
gsp agonist	6.7%	-31.8%[inhibitor]	21.2%	-1.1%	-2.3%	-1.0%
Six1-Eya2 inh	7.3	0.0	-18.3	42.7	0.6	-2.7

#19 Cc1cc(NS(=O)(=O)c2cn(C)nc2C)no1
#20 CCC(=O)Oc1ccc(C(=O)Nc2cccc(NC(=O)c3ccco3)c2)cc1
#21 COc1ccccc1-n1c(SCC(=O)NC(C)(C)C)nnc1-c1ccco1
#22 Cc1ccc(OCC(=O)O)c(-n2nc3ccccc3n2)c1
#23 CCOC(=O)N1CCN(Cc2cccs2)CC1
#24 CCOC(=O)[C@@H]1[C@H]2COc3cc(OC)ccc3[C@@H]2N2C(=O)N(c3cccc(F)c3)C(=O)[C@@]12C
screen / no.	19	20	21	22	23	24
gsp antagonist	7.8%	-6.4%	1.9%	-1.5%	10.2%	3.1%
D2 potentiator	-6.6	-2.3	3.7	-16.0	11.2	-4.2
D2 agonist	-1.7	-2.3	0.0	-3.7	?	-3.2
CtBP-E1A blk	4.1	-26.2	11.0	-2.1	6.4	23.2
gsp agonist	5.0%	14.3%[15.4 µM]	1.4%	40.7%	5.7%	-21.4%
Six1-Eya2 inh	5.6	-7.0	3.4	11.2	5.8	11.2

#25 CCOc1ccc(N(CC(=O)NCc2ccccc2C)S(C)(=O)=O)cc1
#26 CC1CCC(C(C)C)C(OC(=O)COC(=O)c2cccn2C)C1 (configuration not stated)
#27 COc1ccc2nc(C)cc(SCC(=O)NNC(=O)COc3ccc(C)cc3)c2c1
#28 C=CCNC(=O)c1c[nH]c2ccc(S(=O)(=O)N(C)c3ccc(OCC)cc3)cc2c1=O
#29 Clc1ccc(N/N=C/c2cccs2)nn1
#30 CC1(C)Cc2c(sc(NC(=O)c3ccc(S(=O)(=O)N4CCCC4)cc3)c2C#N)C(C)(C)N1
screen / no.	25	26	27	28	29	30
gsp antagonist	2.0%	-19.9%	-11.0%	?	6.1%	3.6%
D2 potentiator	-6.2	3.5	14.1	1.0	2.9	3.5
D2 agonist	2.5	-2.5	-2.0	2.6	1.8	-5.4
CtBP-E1A blk	-10.1	-1.5	13.4	.	-5.3	-4.1
gsp agonist	18.6%	-4.6%	20.4%	-3.3%	-3.5%[15.4 µM]	-0.5%[15.4 µM]
Six1-Eya2 inh	-1.0	-4.5	4.1	6.0	?	3.5

Values in list order from the list:
Entries 25 to 30 in CtBP-E1A blk: -10.1, -1.5, 13.4, ., -5.3, -4.1
Entries 25 to 30 in gsp antagonist: 2.0%, -19.9%, -11.0%, ?, 6.1%, 3.6%
Entries 25 to 30 in D2 agonist: 2.5, -2.5, -2.0, 2.6, 1.8, -5.4

(continued)
#31 CCc1ccc(NC(=S)N2CCC(NC(=O)C3CCCCC3)CC2)cc1
#32 CN1CCN(C(=O)C23CC4CC(CC(C4)C2)C3)CC1
#33 N#Cc1cnn(CC2CCCCC2)c1N
#34 CCCc1c(C(=O)N/N=C(\C)c2ccccc2O)nnn1-c1nonc1N
#35 C#CC[N+](C)(C)CCCCCCCCCC
#36 COc1ccc(CCC(=O)N2CCCC(Nc3ccc(OC)cc3)C2)cc1 (configuration not stated)
screen / no.	31	32	33	34	35	36
gsp antagonist	13.9%	3.3%[15.4 µM]	1.6%	.	11.5%	-0.1%
D2 potentiator	-5.9	-21.3	-12.5	-6.1	-6.8	-6.8
D2 agonist	-3.2	-2.1	-1.6	-4.0	-4.0	-1.1
CtBP-E1A blk	-11.2	-0.3	6.9	-2.1	0.4	-20.9
gsp agonist	0.0%[15.4 µM]	0.1%	-5.4%	?	-2.6%	-8.9%
Six1-Eya2 inh	3.2	-0.1	-3.8	3.3	-4.8	-12.6

#37 COc1ccc(C2(C#N)CCC(=O)N2c2ccccc2)cc1 (configuration not stated)
#38 O=C(CSc1ncccn1)Nn1cnnc1
#39 COc1ccc(-c2cc3ccc(OCc4nn[nH]n4)cc3oc2=O)cc1
#40 CN(C)c1ncnc2c1ncn2[C@H]1CN(Cc2ccc(Cl)cc2)C[C@@H](CO)O1
#41 c1ccc(-c2ccc(CN3CCSCC3)cc2)cc1
#42 CCCCCC1CC(CC(=O)NC(=S)Nc2ccccc2Cl)C(=O)O1 (configuration not stated)
screen / no.	37	38	39	40	41	42
gsp antagonist	6.8%	-2.0%	-0.8%	.	9.0%	.
D2 potentiator	2.2	-7.2	6.8	2.5	-11.2	7.1
D2 agonist	-2.2	-2.7	1.9	-2.4	-3.3	0.2
CtBP-E1A blk	2.4	2.7	-5.5	-0.2	-4.7	0.0
gsp agonist	-30.1%[inhibitor][15.4 µM]	11.8%	?	.	2.4%	0.0%[15.4 µM]
Six1-Eya2 inh	4.7	3.1	-4.8	1.0	-10.3	-1.0

#43 COc1ccc(-n2nc(C(=O)Nc3ccc4c(c3)OCO4)c3c4ccccc4n(C)c3c2=O)cc1
#44 COc1ccc(-c2csc(NC(=S)NC(=O)c3ccc4ccccc4c3)n2)cc1OC
#45 C/C(=N\Nc1ccc([N+](=O)[O-])cc1)c1cccc(N)c1
#46 CC(C)CC1NC(=O)N(CC(=O)N2c3ccccc3NC(=O)C2(C)C)C1=O (configuration not stated)
#47 O=C(CN1CCCC1)NCC(=O)Nc1ccc(F)cc1
#48 N#Cc1c(NC(=O)CSc2ncc(-c3ccccc3)n2CC2CCCO2)sc2c1CCCC2 (configuration not stated)
screen / no.	43	44	45	46	47	48
gsp antagonist	0.8%	9.6%	-17.5%	4.6%	12.4%	-18.7%
D2 potentiator	-14.7	-7.9	-10.2	-20.8	-2.5	7.5
D2 agonist	-1.4	-4.0	-4.7	-0.1	0.7	-0.2
CtBP-E1A blk	1.0	-24.8	-11.9	-14.5	3.3	-13.0
gsp agonist	0.7%	-25.7%	0.9%	-10.8%	-40.9%[inhibitor]	6.7%
Six1-Eya2 inh	3.1	-1.7	-6.0	-2.4	5.2	0.0

#49 CCOc1ccc2ccc(OCC)c(/C=N/n3cnnc3)c2c1
#50 CCCc1ccc(OCc2ccc(C(=O)N/N=C/c3cccnc3)o2)cc1
#51 CC1CC(C)CN(S(=O)(=O)c2ccc(C(=O)OCC(=O)Nc3ccccc3)cc2)C1 (configuration not stated)
#52 COCCn1c(SCC(=O)NC2CCCCC2C)nc2ccccc2c1=O (configuration not stated)
#53 CC1CC2OC(=O)C3(C)CCCC(C)(C23)C1(O)CCc1ccoc1 (configuration not stated)
#54 Cc1ccccc1C(=O)Nc1nnc(-c2cccnc2)o1
screen / no.	49	50	51	52	53	54
gsp antagonist	-10.1%	-2.0%	.	17.1%	-8.9%	-2.4%
D2 potentiator	-9.6	-5.9	-4.3	-10.8	-0.7	0.7
D2 agonist	2.1	3.1	-2.4	-2.8	0.6	0.1
CtBP-E1A blk	-1.7	-0.1	4.3	-1.9	-0.1	-3.8
gsp agonist	-6.9%[15.4 µM]	-18.8%	-65.2%[inhibitor]	-7.5%[15.4 µM]	5.9%[15.4 µM]	-1.7%[15.4 µM]
Six1-Eya2 inh	1.8	-7.8	3.5	-8.4	6.5	-5.4

No enrichment for hits, and some 1.4% of all compounds hit somewhere here.
